Screening data (PubChem BioAssay)
Vaccinia mCherry: inhibitors of vaccinia virus infection (mCherry reporter signal). Potency, µM (series often up to 36.5 µM), inactives show at the highest dose activity change, negative = inhibition, actives largely listed as inhibitors. 310,000 tested, 0.63% active. Vaccinia virus mCherry reporter infection, fluorescence; about a quarter of the inactives have no number; active = well fitted inhibition curve with a large enough effect; inconclusive = small, poorly fitted or top-dose-only effect; inactive = no such curve, though single readings can be large or run the other way; tested in A549 cells; further: nearly all actives have a fitted effect of over 35% in size; inactives centre near -10
VACV Venus inh: vaccinia inhibition (Venus reporter); Vaccinia virus Venus reporter expression, fluorescence; Potency, µM (titrated, usually from 36.5 µM), for the others: top-dose activity change, negative = inhibition, actives largely listed as inhibitors; 330,000 tested, 0.46% active; AID 720580; active means well fitted inhibition curve with a large enough effect; inconclusive means small, poorly fitted or top-dose-only effect; inactive means no such curve, though single readings can be large or run the other way; tested in A549 cells; further: nearly all actives have a fitted effect of over 30% in size; inactives centre near -10
* marks the source's active call; other numbers are inactive results; i = inactive; ? = inconclusive; . = not tested or not shown; & = joins results of further samples; [ ] = another dose, or the depositor's remark. On the % scale 0 is the no-effect control and ±100 the full control effect; potency means the concentration at half of the fitted maximal effect.

SMILES | Vaccinia mCherry | VACV Venus inh
CCCCOCCCNC(=O)C[C@@H]1C[C@@]2(C(=O)OC)CCCCC=C2N(CCc2ccc(OC)c(OC)c2)C1=O | i | -6%
C(#CCN1CCCCC1)COCc1ccccc1 | i | -9%
COCCN(C(=O)C(C)C)c1nnc(-c2ccc(C(C)(C)C)cc2)s1 | -22% | -19%
COc1ccc(CC(=O)Nc2cc(Cl)ccc2O)cc1 | -1% | -14%
CC(=O)N1CCN(C(=O)c2ccc(S(=O)(=O)Nc3ccccc3C)cc2)CC1 | -14% | -2%
CC(C)(C)N(Cc1ccccc1)C(=O)COC(=O)CNC(=O)c1ccco1 | -19% | -12%
CC(NC(=O)c1ccccc1SCC(=O)N1CCCC1)c1ccc(F)cc1 (stereo not drawn) | -4% | -15%
Nc1nc(Cl)cc(Sc2ccc3ccccc3c2)n1 | . | ?
CCN(CC)c1ccc(/C=N/NC(=O)c2cccc(N3CCCC3=O)c2)cc1 | -14% | -2%
COc1ccccc1NC(=O)COC(=O)C1=NN(c2ccccc2)C(=O)CC1 | -10% | -14%
OC[C@@H]1CN(CCN2CCOCC2)C[C@H](n2cnc3c(NC4CCC4)ncnc32)O1 | 0% | 8%
O=C(Nc1nc2c(s1)CN(Cc1ccccc1)CC2)c1c(F)cccc1F | -16% | -12%
COc1ccc2[nH]c3c(c2c1)CCN1C(=O)C(CC(=O)NC(C)(C)C)C[C@H](C(=O)N2CCCCC2)[C@@]31CCc1ccccc1 (stereo partly drawn) | -25% | ?
Cc1ccc2nc(NC(=O)C3CCN(S(=O)(=O)c4ccc5c(c4)oc(=O)n5C)CC3)sc2c1 | ? | ?
O=C(Nc1cccc(NC(=O)c2cccs2)c1)c1ccc2c(c1)OCO2 | ? | -26%
Cc1cc(-c2ccc(S(=O)(=O)Nc3cc(Cl)ccc3C)s2)on1 | -5% | -10%
O=C(NCCc1ccc(Cl)cc1Cl)c1ccc2nc[nH]c2c1 | -16% | -13%
Cc1ccc(S(=O)(=O)NCc2ccc(C(=O)N(C)CCC#N)cc2)cc1 | . | -13%
CCc1ccc(-n2c(C)nc3cc(C(=O)NCc4cccnc4)ccc32)cc1 | -29% | -10%
CC(=O)Nc1ccc(OC(=O)c2ccc(Br)c([N+](=O)[O-])c2)cc1 | i | -5%
O=C(Nc1ccc2c(c1)OCO2)c1ccc2sc([C@@H]3O[C@H](CO)[C@H](O)[C@H](O)[C@H]3O)nc2c1 | 5% | -9%
COC(=O)C1=C(c2ccc3ccccc3c2)C[C@@H]2CC[C@H]1N2C(=O)NCCCOC(C)C | i | -22%
COCCN1C[C@@H](CO)O[C@@H](n2cnc3c(NCCO)ncnc32)C1 | -1% | -3%
Cc1cccc(C(=O)Nc2ccc(O)cc2C(=O)O)c1 | i | -17%
COc1cc(OC)c2c(-c3cccc(-c4ccc(F)c(Cl)c4)c3)cc(=O)oc2c1 | -15% | -24%
O=C(OCc1nnc(-c2ccccc2)o1)C1=COCCO1 | -14% | -4%
CC12CCC(=O)C=C1CCC1C2CCC2(C)C(O)(C(=O)CO)CCC12O (stereo not drawn) | -13% | -9%
Cc1ccc(C)c(CN2C(=O)c3ccccc3S(=O)(=O)c3ccc(C(=O)N4CCN(c5ccccn5)CC4)cc32)c1 | -6% | -12%
Cc1nc2cc(OCc3cc(C(=O)NC(C)c4cnn(C)c4)no3)ccc2s1 (stereo not drawn) | -18% | -20%
CN1C[C@@H]2C(c3ccc(Cl)nc3)C3(c4ccccc4)CC2(C3)[C@H]1c1ccccc1 (stereo partly drawn) | i | -20%

Two of these compounds in a different format:
structure,Vaccinia mCherry,VACV Venus inh
Cc1cc(-c2ccc(S(=O)(=O)Nc3cc(Cl)ccc3C)s2)on1,-5%,-10%
O=C(NCCc1ccc(Cl)cc1Cl)c1ccc2nc[nH]c2c1,-16%,-13%

(further entries)
SMILES | Vaccinia mCherry | VACV Venus inh
Cc1cc(C)c2nc(N(Cc3cccnc3)C(=O)Cc3ccccc3)sc2c1 | -17% | -5%
CCn1ccnc1CN(C)Cc1cn[nH]c1-c1ccc(F)cc1F | -1% | -18%
O=C(Nc1cccnc1)c1cc(-c2ccc(Cl)cc2Cl)on1 | -10% | 2%
O=C(Cn1cnc([N+](=O)[O-])n1)N/N=C/c1ccccc1O | . | ?
O=C(CCC(=O)N1CCCC1)N1CCCC1 | -2% | -7%
Oc1ccc(/C=N/NC(=S)NCc2ccco2)cc1 | . | -5%
COc1ccc([C@H]2CC(=O)C=C(c3ccc(C)c([N+](=O)[O-])c3)C2)cc1 | -19% | -12%
C[n+]1nc(Nc2ccccc2)sc1-c1ccc(O)cc1 | i | -28%
CCc1ccc(Cn2c(CNS(=O)(=O)c3ccc([N+](=O)[O-])cc3)nc3cccnc32)cc1 | -9% | 2%
O=C1c2ccccc2C(O)N1c1cccnc1 (stereo not drawn) | -14% | 5%
CCN(CC)c1ccc(N2C(=O)c3ccccc3C2=O)cc1 | -3% | -9%
C/C(CCc1ccccc1)=N\NC(=O)c1ccccc1[N+](=O)[O-] | i | -8%
CCN1CCN(CCNC(=O)c2ccc(CS(=O)c3ccc(Br)cc3)o2)CC1 (stereo not drawn) | -1%[7.34 µM] | -14%[7.34 µM]
Cc1ccc(NC(=O)CNC(=O)C2CCCCC2)nc1 | -14% | -7%
Cc1ccc(S(=O)(=O)N2CCCC(C(=O)N3CCN(C)CC3)C2)cc1 (stereo not drawn) | i | -13%
CC1Oc2ccccc2N(CC(=O)N2CCCCC2)C1=O (stereo not drawn) | -6% | -6%
CCNc1nc(NCC)n2c(SC(C)C(=O)c3ccc(C)cc3)nnc2n1 (stereo not drawn) | -14% | ?
Cn1c(NC(=O)c2ccc(Cl)cc2Cl)cc(=O)n(C)c1=O | -12% | -8%
COc1ccc(/C=C/C(=O)O)cc1S(=O)(=O)N1CCCC1 | -10% | -8%
O=C1OC(Nc2ccccn2)c2ccccc21 (stereo not drawn) | -14% | -12%
CC(=O)Nc1cc(-c2cccc(CO)c2)cn2c(-c3ccc(F)cc3)cnc12 | 11% | 5%
CCOc1ccc(NC(=O)CSC2=NCCN2)cc1 | i | -8%
CC1CCN(CCOc2ccc(C(=O)c3ccccc3)cc2)CC1 | -18% | -14%
COc1ccc(CCC(=O)NCCc2csc(-c3ccc(C(F)(F)F)cc3)n2)cc1 | -13% | -17%
CN(c1ccccc1)S(=O)(=O)c1ccc2[nH]c(=O)oc2c1 | -11% | -14%
Cc1ccccc1-n1cc(CNC(=O)CC2C(=O)NCCN2C/C=C/c2ccccc2)cn1 (stereo not drawn) | -26% | -1%
COc1cc(/C=C2\SC(=S)N(Nc3ncc(C(F)(F)F)cc3Cl)C2=O)ccc1O | . | i
Cc1cc(=O)n2nc(N3CCCC3C(=O)Nc3cccc(F)c3)sc2n1 (stereo not drawn) | -12% | -10%
Nc1ccc(O)c(-c2nc3ccccc3s2)c1 | -11% | 3%
O=C(CNC(=O)c1ccc(OC(F)F)cc1)Nc1cccc(S(=O)(=O)N2CCCC2)c1 | -28% | -6%
Nc1c2c(nc3ccccc13)CSCC2 | 1%[7.34 µM] | -3%[7.34 µM]
O=c1oc(C2(O)CCCCC2)cc2ccc(Br)cc12 | 21% | -16%
CC(C)N(C(=O)COC(=O)c1ccccc1C(=O)c1ccc(Cl)c([N+](=O)[O-])c1)C(C)C | -17% | -5%
COc1ccc(N2CCN(C(=O)COC(=O)c3cccc(S(=O)(=O)Nc4cccc(C)c4)c3)CC2)cc1 | -6% | -13%
COC(=O)c1cccc(N(C(=O)c2cnccn2)C(C(=O)NCc2ccccc2)c2ccco2)c1 (stereo not drawn) | 10% | 9%
C=CCCC(=O)Nc1ccc(COC(=O)N2CCOCC2)cc1 | i | -10%
Cc1ccc(C(=O)OCc2cc(=O)n3nc(CC(C)C)sc3n2)cc1 | -10% | -8%
Cc1ccc2c(c1)C(c1ccccc1)NCC(=O)N2 (stereo not drawn) | . | -3%
COc1ccc(S(=O)(=O)N(C)C[C@@H]2Oc3ccc(NC(=O)Nc4c(C)noc4C)cc3C(=O)N([C@H](C)CO)C[C@@H]2C)cc1 | -5% | -5%
CCNc1c2c(nc3ccccc13)CC(C)(C)CC2=O | . | -37%
Cc1cccc(NC(=O)CSCC(=O)OCc2ccccn2)c1 | i | -14%
O=[N+]([O-])c1ccc(O)c(/C=N\N=C2c3ccccc3-c3ccccc32)c1 | -19% | -14%
COc1cccc(C(=O)Nn2c(C)nnc2-n2nc(C)cc2C)c1 | i | 2%
O=C(Nc1ccc(OC(F)(F)C(F)F)c(NC(=O)c2cccc(F)c2)c1)c1cccc(F)c1 | -13% | -20%
COc1cccc(OC)c1C(=O)Nc1ccccc1NC(=O)c1c(OC)cccc1OC | -7% | 3%

Complete entries, looked up by structure.
O=c1oc(C2(O)CCCCC2)cc2ccc(Br)cc12 in the list: Vaccinia mCherry: 21%; VACV Venus inh: -16%
CCNc1c2c(nc3ccccc13)CC(C)(C)CC2=O in the list: Vaccinia mCherry: .; VACV Venus inh: -37%

Structural class, the entries above containing bromine (three)
SMILES | Vaccinia mCherry | VACV Venus inh
CC(=O)Nc1ccc(OC(=O)c2ccc(Br)c([N+](=O)[O-])c2)cc1 | i | -5%
CCN1CCN(CCNC(=O)c2ccc(CS(=O)c3ccc(Br)cc3)o2)CC1 (stereo not drawn) | -1%[7.34 µM] | -14%[7.34 µM]
O=c1oc(C2(O)CCCCC2)cc2ccc(Br)cc12 | 21% | -16%

Next entries follow.
SMILES | Vaccinia mCherry | VACV Venus inh
COCCc1ccc(OC2(C)CCN(Cc3ccc(OC)c4ccccc34)C2)cc1 (stereo not drawn) | 1% | -9%
COc1cc(/C=C(\C#N)C(=O)Nc2ccc3ccccc3c2)c([N+](=O)[O-])cc1OC | -2% | -7%
Cc1cccc(NC(=O)c2ccc(COc3cccc4ccccc34)o2)n1 | -6% | -9%
O=C(N/N=C\c1cccnc1)c1ccccc1O | -16% | -9%
COc1ccc(C)cc1NC(=O)C1CCN(S(=O)(=O)c2cccc3nonc23)CC1 | -2%&-4% | -7%&-5%
Cc1ccc(NC(=O)CSc2nc3c([nH]c4ccccc43)c(=O)n2-c2ccccc2)cc1Cl | -17% | -16%
O=C(Cn1c(=O)sc2ccccc21)NCCOc1ccccc1F | -13% | -12%
CCOC(=O)CSc1nnc(CSc2nc(C)cc(C)n2)n1Cc1ccco1 | i | -8%
CC(C)c1nn2c(=O)cc(COC(=O)c3ccccc3NC(=O)COc3ccccc3)nc2s1 | i | -12%
CCC(=O)N1CCc2cc(S(=O)(=O)NC(C(=O)NCCc3ccc(C)cc3)C(C)C)ccc21 (stereo not drawn) | -10% | -8%
Cc1noc(C)c1COc1ccc(C(=O)OCC(=O)Nc2cccc(S(=O)(=O)N3CCOCC3)c2)cc1 | i | -8%
Cc1cccc(NC(=O)C[n+]2cccc(C)c2)c1 | 0% | -12%
COC(=O)C1=C(c2ccc(F)cc2OCc2ccccc2)C[C@@H]2CC[C@H]1N2C(=O)NCc1cccc(OC)c1 | ? | ?
COCCN(C(=O)CCC(=O)Nc1nccs1)C(C(=O)NC(C)(C)C)c1ccc(F)cc1 (stereo not drawn) | -20% | -3%
Cc1ccc(Nc2nc3ccccc3n3nnnc23)cc1 | ? | -13%
COc1cc(C2SCC(=O)N2CCCN(C)C)cc(OC)c1OC (stereo not drawn) | . | -15%
CCN(CC(=O)Nc1cc(Cl)ccc1C)C(=O)c1cc(S(=O)(=O)N2CCCCCC2)ccc1OC | -12% | -6%
CCc1cccc(NC(=O)c2cc(S(=O)(=O)N(C)C)ccc2N2CCCC2)c1 | -1% | 0%
COc1ccccc1NC(=O)c1ccc(COc2ccc(C)c(C)c2)o1 | -8% | -12%
CC(C)c1ccc(N(C(=O)CNC(=O)c2ccco2)C(C(=O)NC2CCCC2)c2ccncc2)cc1 (stereo not drawn) | -11% | 5%
COc1cc(NC(=O)Nc2cccc(-c3noc(C)n3)c2)cc(OC)c1OC | -7% | -13%
COc1ccc(CCNC(=O)c2sc3nc4n(c(=O)c3c2C)CCC4)cc1 | 0% | -11%
Cc1ccc(NC(=O)c2c(Cl)n(C)c3ccccc23)cc1 | i | -29%
Cc1ccc(/C=C/C(=O)Nc2ccc(S(=O)(=O)Nc3ncccn3)cc2)cc1 | i | -19%
C=C[C@]12CC[C@H](OC(C)=O)CC1=CCC1C2CC[C@@]2(C)C1CCC21OCCO1 (stereo partly drawn) | -24% | -13%
CC1CCCCC1NC(=O)CN1CCN(Cc2ccccc2Cl)C1=O (stereo not drawn) | i | -3%
